# Compound activity: PubChem, National Center for Advancing Translational Sciences (NCATS)
# VACV mCherry inh = inhibitors of vaccinia virus infection (mCherry reporter signal). Vaccinia virus mCherry reporter infection, fluorescence; about a quarter of the inactives have no number. Potency, µM (top dose mostly 36.5 µM), for inactives: at the top dose activity change, negative = inhibition, hits mostly inhibitors. 0.63% of 310,000 active. AID 720579; active = well fitted inhibition curve with a large enough effect; inconclusive = small, poorly fitted or top-dose-only effect; inactive = no such curve, though single readings can be large or run the other way; tested in A549 cells; also: nearly all actives have a fitted effect of over 35% in size; inactives centre near -10
# Vaccinia Venus = vaccinia inhibition (Venus reporter) | Potency, µM (doses to about 36.5 µM), without a hit: top-dose activity change, negative = inhibition, usual class: inhibitors | AID 720580 | 0.46% of 330,000 active | Vaccinia virus Venus reporter expression, fluorescence; active means well fitted inhibition curve with a large enough effect; inconclusive means small, poorly fitted or top-dose-only effect; inactive means no such curve, though single readings can be large or run the other way; tested in A549 cells; also: nearly all actives have a fitted effect of over 30% in size; inactives centre near -10
# * = called active by the depositor; i = inactive; u = inconclusive; x = no result given; & = joins results of further samples; [ ] = another dose, or the depositor's remark. % is scaled to controls: 0 for no effect and ±100 for the full control effect; potency is read from the fitted curve at half-maximal effect.
# Each structure is followed by: VACV mCherry inh, Vaccinia Venus
COC(=O)c1cccc(N(C(=O)c2ccco2)C(C(=O)NC2CCCC2)c2ccco2)c1 (stereo not drawn)
    x, -13.2%
COc1cc(/C=N/Nc2nc(=O)[nH]nc2C)cc(OC)c1O
    -23.3%, -9.5%
Cn1c(=O)[nH]c(=O)c2c1nc(NCCCn1ccnc1)n2Cc1cccc(Br)c1
    -2.8%, -3.8%
N#Cc1cccc(NC(=O)CCNS(=O)(=O)c2ccc3c(c2)CCN3C(=O)C2CC2)c1
    i, -6.0%
COc1cc(C2c3cc4c(cc3OC(NNC(N)=S)C2C)OCO4)cc(OC)c1OC (stereo not drawn)
    2.82µM*, u
COc1cc2ccc(C(C)=O)c(O)c2cc1OC
    -26.8%, -13.0%
O=C(Nc1cccc(NC(=O)c2ncn[nH]2)c1)c1cccc(Cl)c1
    -2.7%, 1.4%
CCn1c(CNC(=O)c2ccc(OC)cc2)nnc1SCC(=O)Nc1ccc(OC)cc1
    -5.1%, -1.4%
CCCn1c(SCC(=O)NCCc2ccccc2)nnc1-c1ccco1
    -4.3%, -2.1%
CCOc1ccc(/C=C2/SC(=O)NC2=S)cc1
    i, -6.9%
Cc1ccc(S(=O)(=O)Nc2nc3ccccc3nc2N2CCOCC2)cc1
    -0.6%, -4.4%
O=C(c1c[nH]c(C(=O)C(Cl)(Cl)Cl)c1)c1ccccc1Br
    -6.4%, 4.4%
CCc1ccc(NC(=O)C(=O)NCC(c2cccnc2)N2CCOCC2)cc1 (stereo not drawn)
    2.2%, -5.5%
CN(C)/C=N/c1nc2nccc(-c3ccc(F)cc3)n2n1
    -4.9%, -2.8%
CCCCC(=O)Nc1cccc(NC(=O)c2ccccc2Br)c1
    -12.2%, -1.4%
CC(=O)c1cccc(NC(=O)/C(=C\c2cccnc2)NC(=O)c2ccccc2)c1
    -2.4%, 6.1%
CC(=O)NCc1ccc(S(=O)(=O)N/N=C/c2ccc(N(C)C)cc2)cc1
    i, 7.2%
CC(=O)OCC1OC(Sc2cccc3cccnc23)C(OC(C)=O)C(OC(C)=O)C1OC(C)=O (stereo not drawn)
    -18.3%, -12.6%
CCOC(=O)C(NC(=O)CC)(Nc1cc(C)on1)C(F)(F)F (stereo not drawn)
    x, 1.0%
COc1ccc(OC)c(CN2C(=O)c3ccccc3C2C(=O)NCc2cccnc2)c1 (stereo not drawn)
    i, -11.8%
C[C@H](NS(=O)(=O)c1ccc2c(c1)OCCCO2)C(=O)N1CCN(Cc2ccccc2)CC1
    i, -11.9%
CN(C(=O)COC(=O)/C=C/c1ccc2ccccc2n1)c1c(N)n(Cc2ccccc2)c(=O)[nH]c1=O
    i, -7.2%
Cc1c(C(=O)NC(C)(C)CO)sc2ncnc(NCCN(C)C)c12
    -13.0%, -4.2%
CC1CCN(c2ccc3c(c2)S(=O)(=O)c2cccc(C(=O)O)c2C3=O)CC1
    i, -0.6%
COc1ccccc1N1CCN(S(=O)(=O)c2cc(C(=O)Nc3ccc(Oc4ccccc4)cc3)ccc2F)CC1
    -2.6%, -24.4%
C=C(C)[C@@H]1CC=C(CN2CCC(N3CCC(C(=O)N4CCCC4)CC3)CC2)CC1
    -17.5%, -16.2%
COc1ccc(C(C)(O)c2nc(-c3cc(F)cc(F)c3)cs2)cc1 (stereo not drawn)
    -29.7%, -23.4%
CCOC(=O)CCc1c(C)nc2cc(-c3cc(OC)cc(OC)c3)[nH]n2c1=O
    -11.7%, 0.1%
Cn1ncc2c(=O)[nH]nnc21
    -12.2%, -0.1%
O=C(NC1CC1)c1ccc(-c2ccccc2)cc1
    -10.6%, -3.2%
NC(=O)C1(N2CCCCC2)CCN(C(=O)NC2CCCCC2)CC1
    x, 3.6%
S=C(NCC1CCCO1)N1CCN(c2nc(-c3ccc(Cl)cc3)cs2)CC1 (stereo not drawn)
    u, u
CCCN1CCC(=O)N([C@H](COc2ccccc2)Cc2ccccc2)CC1
    -11.9%, -5.1%&-11.9%
CCc1sc(C(=O)NCc2ccco2)cc1C
    i, -11.9%
CCOc1ccc(NC(=O)Nc2nnc(N3CCCCC3C)s2)cc1 (stereo not drawn)
    -12.2%, -13.2%
CC(C)NC(=O)C1C(c2ccc(C(F)(F)F)cc2)=Nc2ccccc2N1C(=O)c1ccccc1 (stereo not drawn)
    u, -9.1%
COCCN(C(=O)CCC(=O)Nc1ccccn1)C(C(=O)NC(C)(C)C)c1ccc(OC)cc1 (stereo not drawn)
    -14.7%, 1.7%
CC(C)CCNC(=O)Cn1cc(S(=O)(=O)Cc2ccc(F)cc2)c2ccccc21
    -12.1%, -7.7%
O=C(Nc1ncccn1)C12CC3CC(CC(C3)C1)C2
    i, 1.9%
COc1ccccc1-c1nc(SCC(=O)Nc2cc(C)on2)c2c(=O)n(C)c(=O)n(C)c2n1
    2.1%, -5.2%

# Brought forward from above: three entries, then new ones.
# Each structure is followed by: VACV mCherry inh, Vaccinia Venus
CC(C)CCNC(=O)Cn1cc(S(=O)(=O)Cc2ccc(F)cc2)c2ccccc21
    -12.1%, -7.7%
O=C(Nc1ncccn1)C12CC3CC(CC(C3)C1)C2
    i, 1.9%
COc1ccccc1-c1nc(SCC(=O)Nc2cc(C)on2)c2c(=O)n(C)c(=O)n(C)c2n1
    2.1%, -5.2%
CC(C)CCN(C(=O)Nc1ccc(Cl)c(Cl)c1)C1CCN(C(C)C)CC1
    -20.9%, -19.6%
Cc1cc(Br)cn2c(Cc3cccc(Cl)c3)c(-c3ccco3)nc12
    36.0%[activator], 11.6%
CCOC(=O)c1ccccc1NC(=O)CSc1ncc(C(=O)OCC)c(N)n1
    -13.9%, u
CCNC(=O)c1cc2c(c(-c3cccc(-c4cccc(C(=O)N(C)C)c4)c3)n1)[C@@H](CCO)N(S(=O)C(C)(C)C)C2 (stereo partly drawn)
    33.8%[activator], 8.0%
C[C@@H]1COc2cc(N3CC[C@H](O)C3)ccc2S(=O)(=O)N1
    11.1%, 2.5%
COc1ncnc2c1ncn2CCCNCc1ccccn1
    -1.1%, -7.2%
COCCn1nnnc1C(c1ccc(Cl)cc1)N1CCSCC1 (stereo not drawn)
    i, -6.7%
Cc1ccc([C@@H]2CC(=O)[C@@H]3CN(S(=O)(=O)c4ccc(C)cc4)[C@H](c4ccc(Cl)cc4)C[C@@H]3N2S(=O)(=O)c2ccc(C)cc2)cc1
    -7.9%, -9.9%
Cc1ccc(Cn2cc(CCC(=O)NC3CCC(C)CC3)c3ccccc32)cc1 (stereo not drawn)
    -13.8%, -10.7%
COc1ccc(C)cc1NC(=O)C1COc2ccccc2O1 (stereo not drawn)
    -13.2%, -12.2%
CCCC(C(=O)N(C)CC(=O)Nc1ccc(N2CCOCC2)cc1)c1ccccc1 (stereo not drawn)
    u, -7.9%
COCCCNC(=O)c1ccc(Cn2c(=O)c3ccccc3n(Cc3ccc(Cl)cc3)c2=O)cc1
    -12.9%, -12.7%
Cc1ccc(S(=O)(=O)NCC(=O)N2CCN(c3ccc(F)cc3)CC2)cc1
    -0.5%, -12.7%
COc1ccccc1S(=O)(=O)NCc1ccc(C(=O)NC2CCC(O)CC2)cc1 (stereo not drawn)
    -9.4%, -23.3%
COc1ccc(NC(=O)c2cnc3cc(C)ccn3c2=O)c(OC)c1
    -11.8%, -2.5%
CC1=C(C(=O)N2CCOCC2)CC(CC(=O)NC2CCCCC2)C(=O)N1Cc1ccccc1 (stereo not drawn)
    i, -10.2%
COc1ccccc1-c1ccnc(-n2ncc(C(=O)NC(c3cccnc3)C(F)(F)F)c2C)n1 (stereo not drawn)
    u, -26.7%
COC(=O)c1c(SCC(=O)Nc2cccc(Cl)c2C)[nH]c2ccccc2c1=O
    -11.2%, 1.8%
COC(=O)[C@]12CCCCC=C1N(Cc1ccc3c(c1)OCO3)C(=O)[C@H](CC(=O)NCc1ccccc1)C2
    -11.9%, -4.7%
O=C(CC1N=C2c3ccccc3N=C(SCc3ccccc3Cl)N2C1=O)NCc1ccco1 (stereo not drawn)
    -29.4%, u
CCC(C)NC(=O)Cn1c(=O)n(CCCCCC(=O)NCc2ccccc2Cl)c(=O)c2sccc21 (stereo not drawn)
    -14.5%, -6.7%
Cc1nc2sc(C(c3ccccc3)N3CCC(O)CC3)c(O)n2n1 (stereo not drawn)
    -0.9%, 3.1%
NC(=O)CSc1nnc(Cn2c(=O)sc3ccccc32)n1CCc1ccccc1
    -12.3%, -5.9%
CCn1cnc2cc(NCc3ccncc3)ccc21
    -8.5%, -7.9%
COc1cccc(NC(=O)C2(C)CCN2Cc2ccccc2OC(F)F)c1 (stereo not drawn)
    i, -2.3%
CCc1noc(C)c1C(=O)Nc1nc(-c2ccc(OC)cc2OC)cs1
    -19.3%, 0.6%
COC(=O)c1c(SC)nc2ccccc2c1OCc1ccccc1C
    -10.6%, -7.8%
CC(=O)Nc1cccc(/C(C)=N/NC(=S)NC(C)C)c1
    -8.4%, -19.3%
CC(=O)Nc1ncc2c(n1)CC(c1ccco1)CC2=O (stereo not drawn)
    i, -4.5%
Cc1cc2oc(=O)cc(CN(C)Cc3ccccc3)c2cc1C
    21.3%, -2.9%
CCCSc1ccc(-c2nn(-c3ccccc3)cc2/C=C(/C#N)C(=O)N2CCOCC2)cc1
    -26.4%, -21.4%
Cc1ccc(C)c(NCC(=O)NNC(=S)Nc2ccccc2)c1
    -2.6%, -2.2%
Nc1c(C(=O)Nc2ccc(F)cc2)nnn1-c1cccc(C(F)(F)F)c1
    -4.8%, -8.5%
Fc1ccc2c(c1)C(c1ccncc1)=NNC(c1ccccc1)=N2
    i, -8.7%
O=C(NNC(=O)c1ccc(NC(=O)C2CC2)cc1)c1ccc(F)cc1
    i, -5.1%
Cc1ccc(NC(=O)C(C)Sc2nnc3n2CCCCC3)cc1S(=O)(=O)N1CCOCC1 (stereo not drawn)
    -1.2%, -12.3%
Cc1ccccc1Nc1nc(N)nc(COC(=O)c2ccc3c(c2)OCCO3)n1
    i, -7.0%
CCCCCCSc1nc(N)c2c3c(sc2n1)CCCC3C (stereo not drawn)
    i, -15.5%
CC(=O)c1ccc(NC(=O)CCSc2nc(-c3ccco3)cc(C(F)(F)F)n2)cc1
    -20.8%, -10.9%
CC(C)CN(C(=O)COC(=O)Cc1cccc2ccccc12)c1c(N)n(Cc2ccccc2)c(=O)[nH]c1=O
    -2.0%, -26.2%
NC(=O)C1CCN(c2nc(C3CC3)nc3c2nnn3Cc2ccccc2)CC1
    -6.2%, -22.4%
CC1CCCN(S(=O)(=O)c2cccc3nonc23)C1 (stereo not drawn)
    -7.7%, -4.2%
Cc1cccc(CSc2nc3c(c(=O)[nH]2)CCCC3)c1
    i, -12.3%
Cc1ccc(-n2nc3c(c2NC(=O)/C=C\c2ccc4c(c2)OCO4)CSC3)c(C)c1
    -28.0%, -15.0%
O=[N+]([O-])c1ccccc1NCCOc1ccccc1
    -13.3%, -9.3%
O=C1CSC(c2cccnc2)N1c1cccc(Cl)c1 (stereo not drawn)
    6.5%, -3.7%
CN(C(=O)CN1CCN(c2cc(-c3cccc4oc5ccccc5c34)ncn2)CC1)c1ccccc1
    i, -10.3%
CN(C)C(=O)Oc1ccc(C(=O)c2ccccc2)cc1
    -12.2%, -12.9%
CCN(CC)CCNC(=O)c1ccc2c(c1)N(Cc1ccccc1)C(=O)c1ccccc1S2=O (stereo not drawn)
    -15.5%, -9.4%
COc1ccc(Cc2c(-c3cccc(Cl)c3)nc3c(C)cc(Br)cn23)c(C)c1
    i, -9.0%
COc1ccc(Br)cc1/C(C)=N/NC1=NCCN1
    -19.6%, 0.0%
Cn1c(=O)c2c(ncn2CC(=O)N/N=C/C=C/c2ccccc2[N+](=O)[O-])n(C)c1=O
    -20.6%, -28.6%
CC1CCC(NC(=O)CC(C)(C)Cc2nc3ccccc3c(=O)[nH]2)CC1 (stereo not drawn)
    -1.8%, -20.3%
CCOc1ccc(CNCCN2CCCC2)cc1
    i, -9.8%
COc1ccc(S(=O)(=O)Nc2ccccc2Cl)cc1NC(C)=O
    i, -9.0%
CCN(CC)S(=O)(=O)c1ccc(OC)c(NC(=O)C2CC(=O)N(c3ccc(C)cc3)C2)c1 (stereo not drawn)
    -8.6%, 0.8%
CC(C)N(C(=O)c1cc2c(Cl)nc3ccccc3c2s1)C1CCCCC1
    3.0%, 2.3%
CN(C)CCN1CCN(C2CN(Cc3cn(Cc4ccc(Cl)cc4)nn3)S(=O)(=O)C2)CC1 (stereo not drawn)
    -6.5%, 1.0%
NC[C@@H]1CC[C@@H](N)[C@@H](O[C@H]2[C@H](O)[C@@H](O[C@H]3O[C@H](CO)[C@@H](O)[C@H](N)[C@H]3O)[C@H](N)C[C@@H]2N)O1
    -5.4%, -8.3%
CCOc1ncccc1C(=O)OCC(=O)c1cccc(Br)c1
    -6.6%, -21.5%

# Further entries follow.
# Each structure is followed by: VACV mCherry inh, Vaccinia Venus
Cc1ccc(NC(=O)CSc2nnc(CN3CCOCC3)n2C)cc1C
    i, -5.5%
CN(NC1OC(=O)c2ccccc21)c1ccccc1[N+](=O)[O-] (stereo not drawn)
    i, -6.3%
COc1ccccc1-c1n[nH]nc1C1=CC(=O)C[C@H](c2ccc(F)cc2)C1
    i, -17.9%
CC1CCCCN1CCNC(=O)c1cnn2ccccc12 (stereo not drawn)
    i, 1.0%
COc1ccc(CNC(=O)C2CCN(C(=O)N(C)C)CC2)c(OC)c1
    -13.4%, -8.3%
